# Screens (PubChem BioAssay)
# A1 inh = caspase 3/7 activation in MEF A1-2A-BIM cells, primary screen, A1 inhibitor project, cell-based, luminescence, HTS. caspase activation, % (concentration not given with the values). hit rate 0.066% among 330,000. Caspase-Glo 3/7 luminescence, 3 h; percent of clofoctol response, vehicle zero;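 active = over half of replicate activation scores above 10%, or exactly half above 10 with the replicate mean above 10; inconclusive = replicate mean below 10 yet half the replicates above 10; inactive = over half of replicates below 10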;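 also: wells of about 30 µL received 50 nL stock; many hits fall short of the cut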
# UCH37 inh = inhibitors of human UCH37 deubiquitinase, primary screen, biochemical, Ub-AMC cleavage, fluorescence; purified proteasome/UCH37; inhibition, % (no concentration beside the values); hit rate 0.33% among 330,000; AID 588478, 2011;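 active = mean of two replicates above 20%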;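 also: 0% = compound-free wells with enzyme and 100% = wells lacking proteasome; stock transfer was 100 nL into about 20 µL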
# Target sequence (Q9Y5K5 whole entry, looked up): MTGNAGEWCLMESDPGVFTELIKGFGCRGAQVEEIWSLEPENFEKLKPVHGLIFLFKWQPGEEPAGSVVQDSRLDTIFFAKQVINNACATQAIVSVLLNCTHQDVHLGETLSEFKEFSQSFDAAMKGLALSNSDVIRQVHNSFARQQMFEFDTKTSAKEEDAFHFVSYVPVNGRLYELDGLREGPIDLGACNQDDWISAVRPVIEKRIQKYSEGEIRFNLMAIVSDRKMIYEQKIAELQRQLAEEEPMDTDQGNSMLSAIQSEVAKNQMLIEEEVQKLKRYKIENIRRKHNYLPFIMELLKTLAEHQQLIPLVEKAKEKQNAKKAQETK
#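 Test system – human UCH37 enzyme supplied as purified proteasome complex · Incubation – 30 min preincubation with enzyme, 25 min cleavage at room temperature · Detection – AMC fluorescence from Ub-AMC cleavage, excitation 355 nm, emission 460 nm · Benchmarks – no-proteasome wells (full inhibition) and compound-free wells (no inhibition)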
# Ecoli growth = E. coli growth inhibition, primary screen, OD600. Escherichia coli growth, 23 h; hits give low values. OD600 absorbance (concentration not given with the values). hit rate 0.21% among 330,000. AID 1053175, 2014;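 active = OD600 absorbance below the run mean of sample wells minus 3.6 SD, in any replicate, cut at about 0.56 in these data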;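 also: stock transfer was 300 nL into about 60 µL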
# T cruzi repl = inhibitors of intracellular T. cruzi growth, primary screen, luminescence, NIH3T3 host cells; T. cruzi beta-gal in NIH3T3, 90 h; inhibition, % (test concentration not listed); hit rate 1.4% among 300,000; AID 1885, 2009;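 active = mean inhibition across valid replicates above about 55%, limit read from the data; inconclusive = mean below that limit but half or more replicates reach it; inactive = mean below it, under half of replicates reach it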;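 also: signal also drops with host cell toxicity which is not excluded here; 0% = plate median of DMSO wells and 100% = zero luminescence signal; higher percent means less beta-gal luminescence so fewer parasites; stock transfer was 50 nL into about 50 µL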
# FGF22 binding = binders of human FGF22 protein, primary screen, FGF22 synaptogenesis inhibitor project, biophysical, thermal shift, single point | Fibroblast growth factor 22 (Homo sapiens), Q9HCT0 | recombinant FGF22 thermal shift, SYPRO orange fluorescence; percent of sucrose octasulfate shift, DMSO zero | calls only at 9.99 µM | hit rate 1.5% among 340,000;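 active = melting point raised past a set limit in the mean and every replicate; inconclusive = no clear call; three in four hits are not shown here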
# Target sequence (Q9HCT0 whole entry, looked up): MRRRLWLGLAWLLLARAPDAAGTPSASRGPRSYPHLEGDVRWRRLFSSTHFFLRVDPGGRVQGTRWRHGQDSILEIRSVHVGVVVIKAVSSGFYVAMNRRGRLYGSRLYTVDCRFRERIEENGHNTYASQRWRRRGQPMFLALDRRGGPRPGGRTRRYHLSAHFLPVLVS
# AF4-AF9 inh = inhibitors of AF4 peptide binding to AF9, primary screen, biochemical, AlphaScreen, biotin-AF4 peptide, FLAG-AF9, single point. inhibition, % at 10 µM. hit rate 0.47% among 350,000. AID 651704, 2012;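 active = every replicate reaching a set inhibition limit, whatever the replicate mean, cut at about 25% in these data; inconclusive = mean inhibition reaches that limit but some replicates miss it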;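 also: 0% = plate neutral control median and 100% = total signal loss; the record names both 10 and 1 µM as test concentration; the first replicate is given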
# Target sequence (P42568 whole entry, looked up): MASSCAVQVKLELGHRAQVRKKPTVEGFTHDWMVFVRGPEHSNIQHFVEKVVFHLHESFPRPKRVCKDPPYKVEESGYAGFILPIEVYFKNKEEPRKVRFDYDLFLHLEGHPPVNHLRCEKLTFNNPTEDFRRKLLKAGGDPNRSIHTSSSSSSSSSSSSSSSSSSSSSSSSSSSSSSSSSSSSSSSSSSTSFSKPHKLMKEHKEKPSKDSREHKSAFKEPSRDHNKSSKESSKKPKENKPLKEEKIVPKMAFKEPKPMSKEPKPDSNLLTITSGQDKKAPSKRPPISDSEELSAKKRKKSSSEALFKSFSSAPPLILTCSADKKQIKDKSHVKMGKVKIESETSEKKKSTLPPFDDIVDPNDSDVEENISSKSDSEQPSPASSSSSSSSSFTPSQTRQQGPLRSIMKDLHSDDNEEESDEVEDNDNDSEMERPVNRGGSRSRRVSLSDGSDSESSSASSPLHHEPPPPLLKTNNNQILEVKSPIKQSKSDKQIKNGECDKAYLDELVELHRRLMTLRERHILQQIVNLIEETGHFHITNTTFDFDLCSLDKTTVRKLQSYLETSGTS
# Beta apoptosis = inhibitors of cytokine-induced beta cell apoptosis, primary screen, luminescence; protection from apoptosis, % (no concentration beside the values); INS-1E cytokine-induced death, ATP luminescence, 48 h; percent of positive-control rescue, neutral wells zero; AID 435005, 2010; hit rate 0.8% among 300,000;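 active = all replicates at 75% or more, or half of them and the mean; inconclusive = half reach 75% but not the mean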;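 also: 0% = cytokine-treated negative control wells and 100% = positive control rescue; higher means more ATP so stronger rescue from cytokine killing; wells of about 40 µL received 100 nL stock; the first replicate is given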
# rRNA inh HTS = reduced GFP signal of wild-type E. coli, primary screen, bacterial rRNA inhibitor project, GFP/RFP fluorescence, OD600, single point. E. coli WT GFP vs humanized-ribosome RFP mutants, 24 h; hits give low values; DMSO median 0, no signal -100. GFP signal change (wild-type ribosome), % (test concentration not listed). hit rate 1.6% among 350,000. AID 720706, 2013;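 active = significant combined selectivity score with lowered wild-type GFP, culture density cut under 30%, mutant RFP and density less affected; inactive = any of these conditions unmet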; also: one replicate is shown; some compounds called inactive have numbers as strong as hits
# rRNA inh HTS OD600 = second read-out of rRNA inh HTS, no call of its own (marks repeat the call); OD600 change, %; measured here: OD600 growth;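 optical density of the mix in the first replicate; 0 = DMSO median and -100 = no signal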
# rRNA inh HTS RFP = recorded beside rRNA inh HTS, whose call it bears; RFP signal change, %; measured here: RFP humanized mutant strains;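 first replicate; 0 = DMSO median and -100 = no signal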
# * marks the source's active call; other numbers are inactive results; i = inactive; ? = inconclusive; · = no result given.
SMILES,A1 inh,UCH37 inh,Ecoli growth,T cruzi repl,FGF22 binding,AF4-AF9 inh,Beta apoptosis,rRNA inh HTS,rRNA inh HTS OD600,rRNA inh HTS RFP
Nc1nc(Cl)cc(=O)n1Cc1ccc(Cl)cc1,-0.2,0.8,0.641,4.3,i,-0.5,-7.6,-2.1,0.5,-1.0
CCOc1ccc(C2Oc3nc(SC)nnc3-c3ccccc3N2C(C)=O)cc1OC (centres undefined),0.2,2.4,0.687,0.6,i,-2.3,0.7,4.4,8.5,-2.5
CC(C[N+](C)(C)C)OC(=O)C1(c2ccccc2)CCCC1 (centres undefined),0.3,-2.5,0.704,9.0,i,-4.8,0.2,9.9,8.1,0.8
O=C(COC(=O)COc1ccc(Nc2ccccc2)cc1)NCc1ccco1,-0.1,-3.1,0.713,-0.4,·,·,-2.8,-0.3,-0.9,-0.3
COc1cc2c(cc1OC)CN(C(=O)c1cccc([N+](=O)[O-])c1)CC2,-0.1,4.0,0.68,2.9,i,·,-2.8,-1.4,5.7,1.0
Cc1cc(C)c(NC(=O)CN2CCCCCC2)c(C)c1,1.1,1.1,0.636,3.5,i,-6.2,-3.6,9.8,14.3,0.3
CCOC(=O)c1cn(-c2ccccc2CO)c2c(F)c(F)c(F)cc2c1=O,0.2,2.5,0.667,8.1,·,·,-6.1,·,·,·
COc1ccc(Br)cc1S(=O)(=O)Nc1ccc(Cl)cn1,1.0,1.1,0.679,8.1,i,-6.6,-6.5,6.0,6.7,-0.8
COc1ccccc1-c1cn(-c2ccccc2)c(=S)[nH]1,1.5,4.8,0.669,-0.2,i,-0.6,1.6,6.3,7.1,1.4
CCOC(=O)c1cnc2ccc(C)cc2c1OCc1cc(F)cc(F)c1,?,0.7,0.718,6.4,·,·,-5.2,·,·,·
Cc1cc(NC(=O)COC(=O)C2CCN(S(=O)(=O)c3ccc(Cl)cc3)CC2)no1,0.1,2.4,0.693,7.1,·,·,-6.4,·,·,·
COc1ccc(NC(=O)C2C3C=CC4(O3)C2C(=O)N(CCCN2CCCCC2)C4C(=O)NC2CCCC(C)C2C)cc1 (centres undefined),0.0,4.6,0.647,-4.3,i,5.7,2.6,0.5,-6.3,-1.0
NC(=O)C1(N2CCCCC2)CCN(C(=S)Nc2ccc(F)c(Cl)c2)CC1,0.9,4.8,0.626,6.1,·,-2.5,-3.9,0.0,5.1,2.8
Nc1nc(Cl)cc(Oc2ccccc2F)n1,0.8,4.3,0.695,11.6,i,-15.4,-3.7,-11.7,-5.4,-8.0
COc1ccc(CCNC(=O)C2CCC(=O)N(CCc3ccc(OC)cc3)C2)cc1 (centres undefined),1.2,-0.1,0.678,-2.7,i,-23.7,-4.2,-0.9,-8.3,-0.6
CC1CCCCC1NC(=O)C1CCN(S(=O)(=O)N2CCOCC2)CC1 (centres undefined),0.0,3.1,0.688,4.3,·,·,-0.5,·,·,·
O=C(COC(=O)C1CCN(c2ccc(C(F)(F)F)cn2)CC1)c1ccc(F)cc1,1.5,0.1,0.655,-2.8,i,-19.3,-3.4,-7.1,-9.4,-1.9
Cc1nn(-c2ccccc2)c(C)c1/C=N/n1c(-c2ccccc2Br)n[nH]c1=S,0.0,·,·,-29.9,i,-7.1,22.4,·,·,·
C=CCNC(=O)C1CCN(S(=O)(=O)c2ccccc2)CC1,-0.9,0.2,0.679,-3.6,·,·,0.3,·,·,·
CC(C)(C)c1ccc(C(=O)Nc2ccccc2C(=O)NCCN2CCOCC2)cc1,0.3,2.4,0.705,1.7,i,2.3,-5.9,-12.4,-19.0,1.1
CN(CC(=O)NCc1ccncc1)S(=O)(=O)c1ccc2ccccc2c1,0.4,1.9,0.659,-6.0,i,-2.0,·,-3.4,-10.0,-0.3
c1ccc(CN(CCN2CCOCC2)Cc2ccccc2)cc1,·,2.0,0.694,·,i,4.1,·,7.6,7.0,1.4
FC(F)(F)c1cccc(Cc2noc(CN3C[C@@H]4CCC[C@H]3C4)n2)c1,0.3,1.0,0.633,8.4,i,-0.5,-2.6,-4.2,-2.2,4.2
CC(C)(C)OC(=O)CN1C(=O)NC(Cc2c[nH]c3ccccc23)C1=O (centres undefined),0.3,4.4,0.679,2.9,i,1.7,-3.4,1.4,-4.8,2.0
CC(=C/c1ccccc1)/C=N/n1c(-c2ccco2)n[nH]c1=S,0.1,·,·,-17.6,·,·,-1.1,-16.9,-28.5,-2.6
# Further structures follow:
SMILES,A1 inh,UCH37 inh,Ecoli growth,T cruzi repl,FGF22 binding,AF4-AF9 inh,Beta apoptosis,rRNA inh HTS,rRNA inh HTS OD600,rRNA inh HTS RFP
Cc1cc(C)cc(NC(=O)C(NCC2CCCO2)c2ccccc2)c1 (centres undefined),1.1,1.7,0.672,-0.6,i,0.9,4.8,-14.7,-23.4,8.8
COc1ccccc1/C=C1\SC(=S)N(CCC(=O)Nc2nnc(C)s2)C1=O,1.1,2.5,0.597,-8.5,i,2.0,2.4,9.6,15.9,0.0
COc1ccc(CCNC(=O)C/C(C)=N/NC(=O)c2ccc(Cl)cc2Cl)cc1OC,0.6,·,·,0.0,i,-39.6,-8.3,5.8,10.4,-0.5
C/C(=N\NC(=O)c1c[nH]c2ccccc12)c1ccco1,-2.7,·,·,-7.7,i,12.2,0.4,-4.5,10.7,1.0
Cc1cc(=O)oc2cc(OCCc3ccccc3)ccc12,-0.7,-113.4,0.658,13.2,i,-0.2,-4.7,1.3,-13.1,-2.0
CCOC(=O)c1c(C)[nH]c(C)c1C(=O)CSc1nc2ccccc2c(=O)n1-c1ccc(CC)cc1,-0.7,3.7,0.686,43.1,·,·,109.9*,·,·,·
CC(=O)Nc1ccc(NC(=O)C(C)OC(=O)C2CC3C=CC2C3)cc1 (centres undefined),1.1,1.4,0.71,-12.3,·,·,-1.5,·,·,·
CSc1cccc(NC(=O)c2ccc(CN3CCc4ccccc4C3)cc2)c1,-1.9,1.7,0.645,4.3,i,2.7,-1.3,-23.2*,-17.7*,-3.0*
C=CCN(CC=C)S(=O)(=O)c1ncn[nH]1,-0.3,1.8,0.786,-3.2,·,·,-2.0,·,·,·
COc1cccc(/C=N/NC(=O)c2c(C)nc3ccc(Cl)cn23)c1OC,0.7,·,·,-12.5,i,-37.7,1.8,-1.8,0.2,-0.7
CC1=NN(C(=O)c2ccc(C)cc2)C(O)(C(F)(F)OC(F)(F)F)C1 (centres undefined),0.6,1.0,0.696,14.0,·,·,-2.1,·,·,·
COc1ccc(-c2csc3ncnc(N4CCN(C(=O)c5ccco5)CC4)c23)cc1,0.3,·,·,11.7,i,13.2,-0.2,-13.8,-46.5,-3.6
COc1cccc(/C=N/n2c(COc3ccccc3)n[nH]c2=S)c1O,0.3,·,·,-1.5,i,-3.6,-3.6,8.8,1.3,0.7
NC(=O)CSc1nnc(-c2cccs2)n1-c1ccccc1,-0.8,1.1,0.706,-4.3,·,·,1.3,·,·,·
O=C(c1ccco1)n1nc(-c2cccnc2)nc1NCc1ccco1,1.4,4.1,0.629,-9.7,i,0.5,-0.3,17.9,15.7,3.4
N#Cc1c(NC(=O)CSc2nc(N)cc(=O)[nH]2)sc2c1CCCC2,1.3,7.4,0.703,-36.1,i,-0.2,14.7,-20.6,-22.1,-5.5
COc1cccc(NC(=O)CSC2=C(C#N)C(c3ccco3)C3=C(CCCC3=O)N2)c1 (centres undefined),-2.0,-0.5,0.706,-22.2,·,·,-0.2,·,·,·
N#Cc1cnn2c(-c3ccccc3)ccnc12,0.4,-87.6,0.671,-11.8,·,·,-15.0,·,·,·
Cc1nc(CC(=O)N2CCN(c3cccc(C)c3C)CC2)cs1,-0.4,-0.8,0.738,-5.1,·,·,-2.6,·,·,·
Cc1ccc(OCC(=O)N[C@@H](C)c2nnc3ccccn23)cc1C,-1.1,3.1,0.701,-14.3,i,2.0,-6.0,2.3,3.1,0.4
Cc1csc2nc(O)c(C(=O)NC3CCCCC3C)c(=O)n12 (centres undefined),0.7,1.6,0.667,6.6,i,3.1,·,4.5,8.9,-2.1
CC1CC(C)(C)CC2(C1)NC(=O)N(CC(=O)Nc1ccc3[nH]c(=O)[nH]c3c1)C2=O (centres undefined),0.1,2.1,0.703,·,i,4.0,2.5,1.6,3.6,-3.1
COc1ccc2nc(C)cc(N3CC(C)OC(C)C3)c2c1 (centres undefined),1.2,8.2,0.699,-10.8,·,·,-5.6,·,·,·
COc1ccc(CC(=O)NCCC(C)C)cc1S(=O)(=O)N1CCOCC1,-0.4,1.7,0.707,6.6,·,-2.9,4.1,20.2,6.2,-0.1
CC(C)(C)OC(=O)NNC(=O)Nc1ccccc1C(F)(F)F,0.4,1.8,0.679,-5.6,i,-2.6,4.9,15.9,8.0,1.3
# Other records:
SMILES,A1 inh,UCH37 inh,Ecoli growth,T cruzi repl,FGF22 binding,AF4-AF9 inh,Beta apoptosis,rRNA inh HTS,rRNA inh HTS OD600,rRNA inh HTS RFP
CCN(CC)CC(=O)N(CC(=O)Nc1c(C)cc(C)cc1C)C1CCCCC1,-0.3,4.1,0.712,6.1,·,·,5.4,·,·,·
CCN(CC(=O)Nc1ccccc1OC)C(=O)c1ccc(N(C)S(=O)(=O)c2ccc(C)cc2)cc1,0.9,-0.3,0.701,-5.7,i,2.3,6.2,-10.1,-10.2,-0.2
CCOC(=O)c1c(N)sc2c1CCS(=O)(=O)C2,0.8,-0.1,0.703,-4.7,·,·,-2.1,·,·,·
COc1ccc(-n2cnc3cc(N)ccc32)cc1,-0.2,1.4,0.632,30.2,·,·,-1.4,·,·,·
CCN(Cc1ccccc1)Cc1cc(OC)cc(OC)c1,0.3,3.3,0.656,2.0,·,·,-0.7,·,·,·
Cc1cccc(C)c1NC(=O)CSCc1cccc(CSCC(=O)Nc2c(C)cccc2C)n1,0.7,-0.1,0.741,-24.9,·,·,·,·,·,·
CCOc1ccc(-n2cc(-c3ccccc3)c3c(=O)[nH]cnc32)cc1,-0.1,3.7,0.657,3.8,i,9.8,-9.9,-38.9,-70.8,-5.3
CC(=O)Nc1ccc(NC(=O)C2CC(=O)N=C(N)S2)cc1 (centres undefined),1.5,-1.1,0.764,-9.1,·,·,-4.1,·,·,·
O=C(c1ccoc1)N1CCC2(CCCN(Cc3ccc(F)c(F)c3)C2)C1 (centres undefined),0.4,5.2,0.714,46.8,i,-3.1,-1.2,-0.4,-0.2,2.0
COc1ccc(CNc2nc3nc(C)cc(C)n3n2)cc1OC,0.1,2.5,0.606,-22.6,·,·,-2.5,·,·,·

# A portion of the library, so the mix of outcomes need not match the whole.
